Mtb bLac sens: beta-lactam sensitization of Mtb H37Rv; inhibition, % at 25 µM; M. tuberculosis H37Rv growth with meropenem, percent inhibition; hits of this screen are not shown here; hit rate 0.27% among 330,000;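 active = about 74% or more and at least 40 points above the plate without the antibiotic, then above 30% in a dose series; inconclusive = first-round hits that could not be retested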;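 note: growth measured after seven days incubation then overnight dye step; 0% = bacteria only wells and 100% = bacteria with antibiotic; twin plates without the antibiotic show which effects depend on it; some results filed as inactive read as strong as hits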
YopH PTP inh: blocks Yersinia enterocolitica YopH tyrosine phosphatase; hit rate 0.16% among 140,000; inhibition, %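 (about 10 µM by stock and volumes)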; AID 898; fluorescence Ex485/Em525;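 active = inhibition of 50% or more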;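 note: controls were vehicle for no effect and minimum signal wells for full effect; inactives centre near -20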
Arbovirus anti: antivirals against arbovirus infection | arbovirus infection cell-based antiviral screen | inhibition, % at 10 µM | hit rate 0.37% among 200,000 | AID 1251;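 active = inhibition from about 30%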;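 note: bluetongue infection of BSR cells; cell survival read as ATP light after 72 h; 0% = infected wells without compound and 100% = uninfected wells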
Mtb H37Rv: M. tuberculosis H37Rv growth inhibitors, H37Rv strain (AID 1626); inhibition, % at 10 µM, or IC50 in µM where a hit was titrated; hit rate 0.95% among 220,000; M. tuberculosis H37Rv growth inhibition; higher % means a stronger effect;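 active = confirmed in a dose series; inconclusive = inhibition above 80% but not taken into the dose series; inactive = below 80% or under 30% at every dose of the series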;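 note: bacteria incubated seven days before Alamar blue readout; 0% = bacteria only wells and 100% = bacteria with antibiotic wells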
RecA intein inh: Mtb RecA intein splicing inhibition; cell-free RecA intein splicing, fluorescence; hit rate 0.75% among 290,000; inhibition, %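 (about 9 µM by stock and volumes)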; in the data active = inhibition above about 30%; inconclusive = no clear call, values can overlap the other calls;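 note: 0% = vehicle wells and 100% = reference inhibitor control wells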
Target sequence (P9WHJ3 whole entry, looked up): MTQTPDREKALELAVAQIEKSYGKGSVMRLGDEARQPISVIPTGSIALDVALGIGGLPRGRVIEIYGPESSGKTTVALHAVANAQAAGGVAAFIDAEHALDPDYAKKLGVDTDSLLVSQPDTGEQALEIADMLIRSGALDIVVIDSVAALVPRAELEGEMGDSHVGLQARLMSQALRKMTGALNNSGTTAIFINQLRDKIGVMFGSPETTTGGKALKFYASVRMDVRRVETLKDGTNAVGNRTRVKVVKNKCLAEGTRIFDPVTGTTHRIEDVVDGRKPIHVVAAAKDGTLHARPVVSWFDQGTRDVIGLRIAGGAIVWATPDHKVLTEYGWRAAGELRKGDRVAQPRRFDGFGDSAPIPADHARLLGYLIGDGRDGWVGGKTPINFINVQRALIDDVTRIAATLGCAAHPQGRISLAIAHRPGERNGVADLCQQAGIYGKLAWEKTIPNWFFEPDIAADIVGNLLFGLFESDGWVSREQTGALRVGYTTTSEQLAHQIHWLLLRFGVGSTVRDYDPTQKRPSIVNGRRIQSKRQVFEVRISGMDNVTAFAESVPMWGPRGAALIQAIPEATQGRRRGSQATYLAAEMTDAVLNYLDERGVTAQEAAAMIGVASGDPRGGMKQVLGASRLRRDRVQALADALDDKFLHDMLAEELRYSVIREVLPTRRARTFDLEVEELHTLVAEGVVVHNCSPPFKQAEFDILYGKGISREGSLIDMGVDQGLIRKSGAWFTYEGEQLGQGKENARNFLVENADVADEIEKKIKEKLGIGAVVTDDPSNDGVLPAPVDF
Arbovirus anti repeat: recorded beside Arbovirus anti, whose call it bears; inhibition, %; measured here: 10K subset replicate screen; many hits read low in the repeat;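 first of two repeat runs on a subset; 0% = infected and 100% = uninfected wells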
* marks the source's active call; other numbers are inactive results. A portion of the library; the hit share may differ from the screen's.

COc1ccccc1NC(=O)C1CCCCN1S(=O)(=O)c1ccc(F)cc1 (stereo not given) was read as Mtb bLac sens -4, YopH PTP inh -15, Arbovirus anti 2, Mtb H37Rv 2% and RecA intein inh 2.2.
COc1ccc(-c2c(C#N)c(N)n(N)c(=O)c2C#N)cc1Cl was read as Mtb bLac sens 5, Arbovirus anti -1, Mtb H37Rv -1% and RecA intein inh -1.0.
Screening COc1ccc(S(=O)(=O)c2ccc(O)cc2)cc1 returned Mtb bLac sens 2, YopH PTP inh -11, Arbovirus anti 5, Mtb H37Rv -9% and RecA intein inh 0.5.
For O=C(NCc1ccco1)C12CN(Cc3ccccc3)CC1C(c1cccc([N+](=O)[O-])c1)=NO2 (stereo not given) the results were Mtb bLac sens -6, YopH PTP inh -21, Arbovirus anti 7, Mtb H37Rv -2% and RecA intein inh 4.3.
COc1cccc(-n2cnc3sc(C)c(C)c3c2=O)c1 was read as Mtb bLac sens -5, YopH PTP inh -28, Arbovirus anti -4, Mtb H37Rv 3% and RecA intein inh -3.6.
CC(=O)c1cc(C(c2csc(C(C)=O)c2)c2csc(C(C)=O)c2)cs1 was read as Mtb bLac sens -2, YopH PTP inh -27, Arbovirus anti 6, Mtb H37Rv 6% and RecA intein inh 5.7.
For O=C(CCc1nc(-c2ccccc2F)no1)Nc1ccc(Oc2ccccc2)cc1 the results were Mtb bLac sens 95, YopH PTP inh 26, Arbovirus anti -3, Mtb H37Rv inconclusive and RecA intein inh -1.0.
`N#Cc1ccc(NC(=O)Cn2cnc(S(=O)(=O)N3CCc4ccccc43)c2)cc1` gave Mtb bLac sens 1 and RecA intein inh -0.5.
Screening CC(CCc1ccccc1)NC(=O)CN1CCOc2ccccc21 (stereo not given) returned Mtb bLac sens -2, YopH PTP inh -41, Arbovirus anti -9, Mtb H37Rv 7%, RecA intein inh -0.8 and Arbovirus anti repeat -7.
For CN(C)CCNc1ccc(Cl)cc1[N+](=O)[O-] the results were Mtb bLac sens 23, YopH PTP inh -27, Arbovirus anti 12, Mtb H37Rv 0% and RecA intein inh 2.7.
`N=C1C(c2ccccc2)=C(O)CN1c1cccc(S(N)(=O)=O)c1` gave Mtb bLac sens -9, YopH PTP inh -15, Arbovirus anti -10, Mtb H37Rv 7% and RecA intein inh -0.9.
`CSCCCNC(=S)N1CCN(S(=O)(=O)c2cccc(C(F)(F)F)c2)CC1` gave Mtb bLac sens 4, YopH PTP inh 1, Arbovirus anti 4, Mtb H37Rv 4% and RecA intein inh 0.1.
For COc1ccc(N2CCN(C(=O)COC(=O)CNC(=O)c3ccccc3)CC2)cc1 the results were Mtb bLac sens -11 and RecA intein inh -1.9.
O=C(Nc1nnc(S(=O)(=O)N2CCOCC2)s1)c1ccc(Cl)cc1 was read as Mtb bLac sens 12 and RecA intein inh 1.1.
For CCn1c(=O)n(CC)c2cc(N3CCCC3)c(NC(=O)c3ccccc3C)cc21 the results were Mtb bLac sens 13 and RecA intein inh -0.6.
`Cc1cc(C(=O)COC(=O)c2ccc[nH]c2=O)c(C)n1CCc1ccc(F)cc1` gave Mtb bLac sens -4, Arbovirus anti 21, Mtb H37Rv 9% and RecA intein inh 0.2.
`Cc1cc2nc(Cl)c(Cl)nc2cc1C` gave Mtb bLac sens -4, Mtb H37Rv -8% and RecA intein inh -1.1.
Screening O=C1c2ccccc2C(=O)N1CC(=O)N1c2ccccc2Sc2ccccc21 returned Mtb bLac sens 4, YopH PTP inh -4, Arbovirus anti -14, Mtb H37Rv 13% and RecA intein inh 5.7.
`Cc1ccc(-n2c(SCC(=O)NCc3cccs3)nnc2-c2ccoc2C)cc1` gave Mtb bLac sens -2, YopH PTP inh -24, Arbovirus anti -9, Mtb H37Rv 5% and RecA intein inh 3.3.
Screening CC1CC(C)CN(C(=O)c2cc(-c3ccccn3)nc3ccccc23)C1 (stereo not given) returned Mtb bLac sens 0, YopH PTP inh -6, Arbovirus anti 1 and Mtb H37Rv -9%.
Screening CC(C)C[C@H](NC(=O)Nc1ccccc1F)C(=O)O returned Mtb bLac sens -21, YopH PTP inh -16, Arbovirus anti -5, Mtb H37Rv -14% and RecA intein inh -5.1.
`COc1ccc(N=Nc2ccc(N)nc2N)cc1` gave Mtb bLac sens 0, Mtb H37Rv 0% and RecA intein inh 0.3.
For CCN1CCN(C(=O)CCCn2c(C)c3cnn(-c4ccccc4)c(=O)c3c2C)CC1 the results were Mtb bLac sens -6, YopH PTP inh -13, Arbovirus anti 5, Mtb H37Rv -1% and RecA intein inh 1.6.
Cc1ccccc1C(=O)NC(=S)NCCC1=CCCCC1 was read as Mtb bLac sens 0, Arbovirus anti -2, Mtb H37Rv 1% and RecA intein inh 2.8.
Screening Cc1oc(-c2ccccc2Cl)nc1CSc1nc2c(c(=O)[nH]1)CCC2 returned Mtb bLac sens 0, YopH PTP inh -28, Arbovirus anti 19 and RecA intein inh 0.2.
For COc1ccc(NC(=O)C2CCCN(S(=O)(=O)c3cccs3)C2)cc1OC (stereo not given) the results were Mtb bLac sens 11, YopH PTP inh -21, Arbovirus anti 9, Mtb H37Rv 1% and RecA intein inh -0.7.
Screening Cc1ccc(N2C(=O)C(CN3CCOCC3)C2c2ccccc2)cc1 (stereo not given) returned Mtb bLac sens -3, Arbovirus anti -8, Mtb H37Rv 10% and RecA intein inh -0.9.
Screening O=C(Nc1ccc(F)cc1F)c1ccc(-n2cncn2)nc1 returned Mtb bLac sens -8, YopH PTP inh -17, Arbovirus anti -2, Mtb H37Rv 1% and RecA intein inh -4.9.
For CCn1c(=O)cc(C(F)(F)F)[nH]c1=S the results were Mtb bLac sens -7, Arbovirus anti 5, Mtb H37Rv 5% and RecA intein inh 1.9.
`Cc1ccc(NC(=O)C(=O)Nc2ccc(C)cn2)nc1` gave Mtb bLac sens -6, Arbovirus anti 0, Mtb H37Rv -2% and RecA intein inh 0.3.
`COCCNC(=O)CN(c1cccc(OC)c1)S(=O)(=O)c1ccc(C)cc1` gave Mtb bLac sens 5, YopH PTP inh -33, Arbovirus anti 0, Mtb H37Rv -6% and RecA intein inh 3.8.
`O=c1[nH]nc(SCc2nnc(-c3ccc([N+](=O)[O-])cc3)o2)n1C1CCCCC1` gave Mtb bLac sens 48, Mtb H37Rv 25% and RecA intein inh 1.5.
`CCCCCC1CC(CC/C(C)=N/NC(N)=O)C(=O)O1` (stereo not given) gave Mtb bLac sens 5 and RecA intein inh -1.5.
Screening COC(=O)Cn1cnc2c(nnn2Cc2ccc(Cl)cc2)c1=O returned YopH PTP inh -40, Arbovirus anti 1, Mtb H37Rv -7% and RecA intein inh -1.7.
`CC1=C(C(=O)OC(C)C)C(c2cccs2)C(C(=O)OC(C)C)=C(C)N1` gave Mtb bLac sens -3, YopH PTP inh -11, Arbovirus anti 4, Mtb H37Rv 5% and RecA intein inh -2.4.
Cc1ccc(-c2nc(N)sc2CC(=O)OCC(=O)NCC2CCCO2)cc1 (stereo not given) was read as Mtb bLac sens -5, YopH PTP inh -27, Arbovirus anti 8, Mtb H37Rv -1% and RecA intein inh 3.8.
Screening O=C1CCCCC(=O)c2ccccc2N1 returned Mtb bLac sens 7, YopH PTP inh 1, Arbovirus anti -2, Mtb H37Rv -4% and RecA intein inh -0.5.
`Cc1ccc(N(CC(O)CN2CCCCC2)S(=O)(=O)c2ccccc2[N+](=O)[O-])cc1` (stereo not given) gave Mtb bLac sens 4, Arbovirus anti 9, Mtb H37Rv -4% and RecA intein inh 0.5.
`O=C1C(=O)N(CCS(=O)(=O)c2ccccc2)c2ccc(F)cc21` gave Mtb bLac sens 4 and RecA intein inh 10.
Screening O=C(CN(Cc1ccco1)S(=O)(=O)c1cccs1)Nc1ccccc1C(F)(F)F returned Mtb bLac sens -1, YopH PTP inh -8, Arbovirus anti -1, Mtb H37Rv -3% and RecA intein inh -0.6.
`COc1ccc(NC(=O)CNC(c2ccccc2)c2ccccc2)cc1Cl` gave Mtb bLac sens -3 and RecA intein inh 5.9.
Cc1ccc2c(c1)N(CC(=O)NC(C)CCc1ccccc1)C(=O)c1cccnc1O2 (stereo not given) was read as Mtb bLac sens 0 and RecA intein inh 1.3.
For CCN(CC)S(=O)(=O)c1ccc(O)c(C(=O)OCC(=O)Nc2cc(C)c(C)cc2[N+](=O)[O-])c1 the results were Mtb bLac sens -8, Arbovirus anti 0, Mtb H37Rv 3% and RecA intein inh 0.3.
For COc1ccc(N2C(=O)/C(=C/c3ccc([N+](=O)[O-])cc3)C=C2c2ccccc2)cc1 the results were Mtb bLac sens 6, YopH PTP inh -2, Arbovirus anti -9, Mtb H37Rv 2% and RecA intein inh 3.0.
Screening Cc1ccc(C)c(N2CCN(C(=O)CCCN3C(=S)NC(C)(C)CC3C)CC2)c1 (stereo not given) returned Mtb bLac sens 0, YopH PTP inh -23, Arbovirus anti 19, Mtb H37Rv 2% and RecA intein inh 0.7.
CC1CCCCN1c1nc(-c2ccncc2)nc2ccccc12 (stereo not given) was read as Mtb bLac sens 90, YopH PTP inh -28, Arbovirus anti -18, Mtb H37Rv -2% and RecA intein inh 17.
Screening Cn1c(COc2ccccc2)nnc1SCC(=O)Nc1ccc(N2CCOCC2)c(Cl)c1 returned Mtb bLac sens 1, YopH PTP inh 2, Arbovirus anti -3, Mtb H37Rv -2% and RecA intein inh -0.6.
Screening CCCOC(=O)/C(=C\C=C\c1ccccc1)NC(=O)c1ccccc1 returned Mtb bLac sens 4, Arbovirus anti -18 and Mtb H37Rv 6%.
Screening Cc1ccc(S(=O)(=O)N/N=C\c2ccc3c(c2)OCO3)cc1 returned Mtb bLac sens 4, YopH PTP inh -24, Arbovirus anti -6, Mtb H37Rv 3% and RecA intein inh 0.0.
`O=C(CN1CCN(CC(=O)Nc2ccccc2Cc2ccccc2)CC1)Nc1ccccc1Cl` gave Mtb bLac sens -1 and RecA intein inh -1.9.
Screening COCCCN(Cc1ccco1)C(=O)Cn1ncc2c(=O)oc3ccc(C)cc3c21 returned Mtb bLac sens -5, Mtb H37Rv 1% and RecA intein inh 0.6.
O=C(NCc1cccnc1)C(=O)NCC1OCCN1S(=O)(=O)c1ccccc1 (stereo not given) was read as Mtb bLac sens 3, YopH PTP inh -21, Arbovirus anti 2, Mtb H37Rv 1% and RecA intein inh -0.1.
`CC1(C)CC(NC(=O)CC2CCCCC2)CC(C)(C)N1` gave Mtb bLac sens 1, YopH PTP inh -52, Arbovirus anti 3, Mtb H37Rv -8% and RecA intein inh 0.7.
Screening O=C(NCc1ccc2c(c1)OCO2)c1ccc(N2C(=O)C3CCCCC3C2=O)cc1 (stereo not given) returned Mtb bLac sens -2, YopH PTP inh -17, Arbovirus anti 2, Mtb H37Rv -12% and RecA intein inh -0.1.
Screening O=C(NC(=S)NCCc1ccccn1)c1ccco1 returned Mtb bLac sens -5, Arbovirus anti -2, Mtb H37Rv 3% and RecA intein inh -7.3.
For Cc1cc(N2CCN(C)CC2)nc2ccc(NC(=O)c3ccc(Br)o3)cc12 the results were Mtb bLac sens 99, YopH PTP inh -5, Arbovirus anti -33, Mtb H37Rv 5% and RecA intein inh -0.2.
Screening Cc1ccc(C)c(S(=O)(=O)N2CCN(C(=O)Cn3c(C(F)(F)F)nc4ccccc43)CC2)c1 returned Mtb bLac sens -30, YopH PTP inh 1, Arbovirus anti -2, Mtb H37Rv -5% and RecA intein inh 2.1.
For CCOCC(=O)Nc1c(C(=O)Nc2ccc(OC)cc2OC)oc2ccccc12 the results were Mtb bLac sens -5, YopH PTP inh -36, Arbovirus anti -7, Mtb H37Rv -2% and RecA intein inh -0.9.
Cc1ccccc1OCC(=O)OCC(=O)N1CCCc2ccccc21 was read as Mtb bLac sens 60 and RecA intein inh 2.7.
For CC(=O)N(c1ccccc1Cl)S(=O)(=O)c1ccc(Cl)cc1 the results were Mtb bLac sens -3, Arbovirus anti 1, Mtb H37Rv -8% and RecA intein inh -0.1.
Screening Cc1ccc(NC(=O)c2oc3ccccc3c2NC(=O)C2CCCO2)cc1C (stereo not given) returned Mtb bLac sens 1, Arbovirus anti -11, Mtb H37Rv 11% and RecA intein inh 5.1.

Compound activity deposited in PubChem BioAssay by several laboratories.
